Biofilm kill mix = mixtures killing C. albicans biofilm. 120,000 compounds, 0.02% hits. inhibition, % at 7.6 µM. C. albicans biofilm persisters + clotrimazole, fluorescence viability; primary screen in compound mixtures of four per well;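 active means inhibition above 30.3% in the primary screen of four-compound pools, then above 30% when the compound was retested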;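 further: compounds exposed to preformed 24 h biofilms for 48 h; the number belongs to the whole pool; some results filed as inactive read as strong as hits; inactives centre near 12; 0% = biofilm with clotrimazole alone and 100% = kill control; retested singly at about 60 µM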
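System: C. albicans CAF4-2 wild-type biofilms; Medium: RPMI/MOPS medium, pH 7.0; Reagent: Clotrimazole, 50 µg/mL; Times: biofilm formation 24 h, compound exposure 48 h, 37 °C; Detection: 2-h Alamar Blue fluorescence, 535/590 nm excitation/emission; Evaluation: percent inhibition of biofilm viability.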
* marks the source's active call; other numbers are inactive results. These rows are one share of the data; count on the stated rates, not on these rows.

SMILES	Biofilm kill mix
Cc1cc(C(=O)N2CCN(c3ncccn3)CC2)nn1C	17
CCCC(CCC(=O)Nc1cc([N+](=O)[O-])ccc1O)C(=O)O (stereo not given)	18
O=C(/C=C/c1ccco1)Nc1ccccc1N1CCCC1	21
O=S(=O)(Nc1nc2ccccc2nc1Cl)c1ccc2ccccc2c1	11
CN(C)Cc1nc2ccccc2c(=O)n1Cc1nc(-c2cccc([N+](=O)[O-])c2)cs1	14
Cc1ccc(Nc2nc(/N=C/N(C)C)n[nH]2)cc1C	17
CCc1ccc(C2C(C#N)=C(N)C(C#N)(C#N)C3=CCC(C(C)(C)C)CC32)cc1 (stereo not given)	-5
Cc1c(/C(O)=C2\C(=O)C(=O)N(CCCN(C)C)C2c2ccccc2)cnn1-c1ccccc1 (stereo not given)	11
CCn1c(COc2ccc(=O)n(-c3ccccc3)n2)nnc1SCC(=O)OC	18
CS(=O)(=O)N(CC(=O)Nc1ccccc1Cl)c1ccc(Cl)cc1	18
CC(C(=O)Nc1nccs1)c1ccc([N+](=O)[O-])cc1 (stereo not given)	-11
CC(C)C(=O)Nc1ccc(Br)cc1Cl	9
CCc1ccc(NC(=O)COC(=O)/C(=C/c2ccccc2OC)c2ccccc2)cc1	8
Cc1ccc([N+](=O)[O-])cc1N(CC(=O)NC1CCCC1)S(C)(=O)=O	13
COc1ccc(NC(=O)c2cc(-c3ccco3)on2)cc1	4
O=C1CSC(=S)N1/N=C/c1cccnc1	16
Cc1cc(C)c(OCC(=O)N/N=C/c2ccc3c(c2)OCO3)c(C)c1	19
Cc1ccccc1C(=O)N1CCN(c2ccc(NC(=O)c3cccnc3)cc2)CC1	18
COc1ccccc1CNC(=O)c1cccc2c1C(=O)N(Cc1cccnc1)C2	11
COC(=O)c1[nH]c(C)c(/C(O)=C2\C(=O)C(=O)N(CCN3CCOCC3)C2c2cccs2)c1C (stereo not given)	13

Part of the list above in order of SMILES length, high to low.
SMILES	Biofilm kill mix
Cc1c(/C(O)=C2\C(=O)C(=O)N(CCCN(C)C)C2c2ccccc2)cnn1-c1ccccc1 (stereo not given)	11
Cc1ccc(Nc2nc(/N=C/N(C)C)n[nH]2)cc1C	17
CC(C)C(=O)Nc1ccc(Br)cc1Cl	9

Further compounds.
SMILES	Biofilm kill mix
COc1ccc(Nc2ccc(OC)cc2)cc1	12
COCc1c(C(=O)NC2CCCCCC2)oc2ccccc12	9
COc1ccc(OC)c(NC(=O)COC(=O)C2CCN(C(=O)c3ccc(Cl)cc3)CC2)c1	10
Cc1ccc2nc(NCc3ccccc3)c(C=NCc3ccccc3)c(=O)n2c1	11
Cc1cc(=O)[nH]c(S)c1C#N	5
COc1ccc(/C=C2/SC(=O)N(CCC(=O)Nc3ccccc3)C2=O)cc1OC	-3
CCCC1CCC(=NNC(=S)NCCc2ccccc2)CC1 (stereo not given)	15
COc1cc(C(C(=O)NC2CCCCC2)N(C(=O)Cc2c[nH]c3ccccc23)c2ccc(C)cc2)cc(OC)c1OC (stereo not given)	-13
COCc1ccc(C(=O)N2CCCC(C(=O)c3cccc(C(F)(F)F)c3)C2)o1 (stereo not given)	13
COc1cnc(-c2ccccn2)nc1Oc1c(C)cccc1C	11
O=C(Nc1ccncc1)c1cc(-c2ccccn2)nc2ccccc12	-3
CCc1ccc(NC(=O)c2cnn3c(C(F)F)cc(C)nc23)cc1	16
COc1ccc(C(C)C)cc1S(=O)(=O)N1CCN(c2ccccc2)CC1	5
CN(C(=O)CCc1nnc(Cc2ccc(-c3ccccc3)cc2)o1)C1CCOCC1	9
CC(C)CC(=O)N1CCC(O)(CS(=O)(=O)c2ccc(Cl)c(Cl)c2)CC1	21
CCC1C/C(=C/c2ccco2)C(=O)/C(=C/c2ccco2)C1 (stereo not given)	1
COc1cc(NC(=O)c2cccnc2Sc2ccc(C)c(C)c2)cc(OC)c1OC	16
Cc1ccnc(NC2CCCCC2)c1	4
Cc1ccc(CN2CCN(Cc3c(C)nn(C(C)C)c3C)CC2CCO)o1 (stereo not given)	26
O=C(Cn1c2[n+](c3ccc(C(F)(F)F)cc31)CCCCC2)Nc1c(F)cccc1F	2

Five compounds drawn at random from the list so far, as already listed:
SMILES	Biofilm kill mix
CN(C(=O)CCc1nnc(Cc2ccc(-c3ccccc3)cc2)o1)C1CCOCC1	9
O=C(Nc1ccncc1)c1cc(-c2ccccn2)nc2ccccc12	-3
Cc1ccc(CN2CCN(Cc3c(C)nn(C(C)C)c3C)CC2CCO)o1 (stereo not given)	26
CC(C)CC(=O)N1CCC(O)(CS(=O)(=O)c2ccc(Cl)c(Cl)c2)CC1	21
CCC1C/C(=C/c2ccco2)C(=O)/C(=C/c2ccco2)C1 (stereo not given)	1

In another format: entries from further up
compound: COc1ccc(C(C)C)cc1S(=O)(=O)N1CCN(c2ccccc2)CC1
  Biofilm kill mix = 5

compound: Cc1ccc(CN2CCN(Cc3c(C)nn(C(C)C)c3C)CC2CCO)o1 (stereo not given)
  Biofilm kill mix = 26

compound: CCc1ccc(NC(=O)c2cnn3c(C(F)F)cc(C)nc23)cc1
  Biofilm kill mix = 16

compound: Cc1ccnc(NC2CCCCC2)c1
  Biofilm kill mix = 4

Going on with the list:
SMILES	Biofilm kill mix
O=C(NC(=S)Nc1ccc2oc(=O)ccc2c1)c1cc2ccccc2o1	13
CCN(CC)S(=O)(=O)c1ccc(N2CCCC2)c(C(=O)OCC(=O)Nc2cc(C)on2)c1	16
CCOc1ccc(NCc2nnc(SCC(=O)Nc3nc(-c4ccccc4)cs3)n2-c2ccccc2)cc1	11
COc1ccc(SCC(=O)Nc2ccccc2Cl)cc1	13
Cc1ccc2nc(-c3cc(-c4ccccc4)no3)cn2c1	30
CC1CCN(c2cc(N3CCN(C(=O)c4ccc(F)c(F)c4)CC3)c([N+](=O)[O-])cc2F)CC1	15
CN(C)c1ccc(C(O)P(=O)(OC2CCCCC2)OC2CCCCC2)cc1 (stereo not given)	31
CSc1ccc(CN2CCN(C(=O)c3ccc([N+](=O)[O-])cc3)CC2)cc1	14
Cc1nc(-c2ccccc2)c(Cc2ccccc2O)c(=O)[nH]1	14
Cc1c(-n2cc(C(=O)c3cc(F)ccc3O)cc(C#N)c2=O)c(=O)n(-c2ccccc2)n1C	6
CCOC(=O)CNC(=O)c1ccc(C#CC2(O)CCCCC2)cc1	16
CCOC(=O)c1c(NC(=S)N2CCOCC2)sc2c1CCN(C(=O)OCC)C2	16
CCNc1nc(OCC)nc(N2CCC(Cc3ccccc3)CC2)n1	6
Cc1ccc(-c2nc3c(c(=O)c4ccccc4n3C)c(=O)n2Cc2ccco2)cc1	2
COc1ccc2[nH]c(C(=O)NCCN3CCOCC3)cc2c1	15
Cc1ccc(C(=O)C[n+]2cc(-c3ccccc3)n3c2CCCCC3)cc1	14
CN(c1ccccc1)S(=O)(=O)c1ccc(C(=O)Nc2nnc(C3=COCCO3)o2)cc1	9
COc1cccc(NC(=O)Nc2ccccc2SC)c1	9
CC(=O)c1ccc(OC(=O)c2cc3ccccc3oc2=O)cc1	18
CSc1ccc(/C=N/NC(=O)CN2CCN(Cc3ccc(C)cc3)CC2)cc1	14
O=C(CSc1ncnc2nc[nH]c12)c1ccc([N+](=O)[O-])cc1	6
CC[C@H](CO)Nc1nc(Nc2cccc(Cl)c2)c2ncn(C(C)C)c2n1	11
Cc1nn(-c2ccccc2)c(N2CCCC2)c1/C=N/NC(=S)Nc1cc(C(F)(F)F)ccc1Cl	20
Brc1ccc2ncnc(NCc3cccnc3)c2c1	15
Cc1c(/C=N/NC(=O)CNc2ccccc2)c2ccccn2c1C(=O)c1ccc(Cl)cc1	11
Cc1ccc(NC(=O)Nc2cc(C)on2)cc1	17
Cc1occc1C(=O)N/N=C/C1=C(N2CCOCC2)C(=C\c2ccc(Cl)cc2Cl)/CC1	-6
CC(C)C[C@H](NC(=O)c1nc[nH]c1C(=O)N1CCN(C(=O)OC(C)(C)C)CC1)C(=O)OCc1ccccc1	14
Cc1c(Cl)ccc2c(C(=O)NC(C)c3ccncc3)cc(-c3ccncc3)nc12 (stereo not given)	-2
Cc1ccc(C(=O)OCC(=O)Nc2ccc(S(N)(=O)=O)cc2)c(O)c1	5
COc1c(C)oc2cc(O)ccc2c1=O	10
Cn1nc(CC(=O)NC2CCCCC2)c2ccccc2c1=O	8
CCCSc1cc(NCCOC(C)=O)c([N+](=O)[O-])c2nonc12	19
S=c1[nH]nc(C2CCCCC2)n1Cc1ccccc1	11
O=C1COc2ccc(C(=O)COc3ccc([N+](=O)[O-])cc3)cc2N1	9
NC(=O)CC(NC(=O)Cc1cccc2ccccc12)c1ccc(NCc2ccc(F)cc2)c([N+](=O)[O-])c1 (stereo not given)	17
NC(=O)/C(=C\c1cccnc1)NC(=O)c1ccccc1	14
O=C(CC1C(=O)NCCN1Cc1c(F)cccc1Cl)NC1CCCC1 (stereo not given)	20
O=C(COc1cccnc1[N+](=O)[O-])NCc1cccs1	18
COc1ccc([N+](=O)[O-])cc1N(CC(=O)NCC1CCCO1)S(C)(=O)=O (stereo not given)	12
CC(=O)/C(N=Nc1cc2c(cc1[N+](=O)[O-])OCCO2)=C(\C)O	5
CC(C)CCNC(=O)c1ccc(C2SCC(=O)N2Cc2ccco2)cc1 (stereo not given)	11
COc1cc(-c2nc(CN(C)Cc3nnc(C)o3)c(C)o2)ccc1F	23
CCOC(=O)c1c(C)n(C)c2cc([N+](=O)[O-])c(O)c([N+](=O)[O-])c12	9
Cc1ccc(C(C)C)c(OCc2ccc(C(=O)N/N=C/c3ccc(C(=O)O)cc3)cc2)c1	22
Cc1ccc(C)c(NC2=NC3(CCCCC3)N=C(N)N2)c1	7
COc1ccc(Br)cc1C(=O)N/N=C/c1ccc([N+](=O)[O-])cc1	7
CCc1noc(C)c1C(=O)Nc1nc(-c2ccc(Cl)cc2Cl)cs1	12
COc1ccc(C(NC(C)=O)c2c(O)ccc3ccccc23)cc1OC (stereo not given)	0
COc1ccc(/C(C)=N/NC(=O)c2ccccc2OCc2ccccc2)c(OC)c1	14

Remaining list, next part:
SMILES	Biofilm kill mix
COc1ccc(C2=NN(C(=O)CSc3nnc(C)n3C)C(c3ccco3)C2)cc1 (stereo not given)	10
CC1CC(CC(=O)Nc2nc(-c3ccccc3)cs2)C(=O)O1 (stereo not given)	8
O=C(NN1C(=O)C2C3C=CC(O3)C2C1=O)c1cccc(Br)c1 (stereo not given)	-7
CCn1nc(C)c(NC(=O)c2cnn3c(C(F)F)cc(-c4ccccc4)nc23)c1C	5
C/C(CC(=O)Nc1ccccn1)=N\NC(=O)c1ccccc1	17
O=C(OCCOc1ccccc1)c1n[nH]c2ccccc12	16
Cc1ccc2[nH]c3c(c2c1)CN(C(=O)CN1CCCCC1)CC3	24
NC(=O)COC(=O)c1c2c(nc3ccccc13)CCCC2	8
COC(=O)[C@@H]1C[C@H]2CC[C@H](O)C[C@H]2N1Cc1ccccc1OS(=O)(=O)c1ccc(C)cc1	3
Cc1ccc([N+](=O)[O-])cc1NC(=O)/C=C/C(=O)O	1

As entered above.
`Cc1ccc2[nH]c3c(c2c1)CN(C(=O)CN1CCCCC1)CC3` in Biofilm kill mix has 24
`NC(=O)COC(=O)c1c2c(nc3ccccc13)CCCC2` in Biofilm kill mix has 8
`Cc1ccc([N+](=O)[O-])cc1NC(=O)/C=C/C(=O)O` in Biofilm kill mix has 1
`COC(=O)[C@@H]1C[C@H]2CC[C@H](O)C[C@H]2N1Cc1ccccc1OS(=O)(=O)c1ccc(C)cc1` in Biofilm kill mix has 3

(further entries)
SMILES	Biofilm kill mix
CCOC(=O)c1c(NC(=O)C(=O)N/N=C/c2ccc(OCC)cc2)sc2c1CCCCC2	18
O=C1NC(=S)N/C1=C\c1ccc(Oc2ccc(C(F)(F)F)cc2[N+](=O)[O-])c(Cl)c1	20
Cc1ccc(C(=O)NNC(=O)Cc2csc(-c3csc(C)n3)n2)cc1	17
Cc1ccccc1NC(=O)c1ccc([N+](=O)[O-])o1	26
S=c1[nH]nc(-c2ccc3ccccc3n2)n1-c1ccccc1	10
COC(=O)[C@@H]1CC[C@H](C)[C@@H](c2ccc(C)cc2)N1C(=O)c1ccc(/C=N/O[C@@H](C)CN2CCCCc3nc(C)c(C)cc32)cc1	7
O=C1CSCN1c1ccc(Cl)cc1	15
O=C1CN(S(=O)(=O)c2ccc(Cl)cc2C(F)(F)F)CCN1	-3
COc1ccccc1NC(=O)CCSc1ccc(C)cc1	-1
CCOC(=O)c1c(NC(=S)N2CCCCC2)sc2c1CCN(C(=O)OCC)C2	13
COc1ccc2nc(N/C(N)=N/C(=S)Nc3ccc(C)c(C)c3)nc(C)c2c1	12
CC(COc1ccccc1)N1CCC(CO)(Cc2ccccc2)CC1 (stereo not given)	15
CC(C)c1nc(SCC(=O)c2c[nH]c3ccccc23)n[nH]1	0
O=C(CC1C(=O)NCCN1Cc1ccoc1)NCCCn1ncc2ccccc21 (stereo not given)	6
CC(=O)C1=NN(c2ccccc2)C(c2ccc3c(c2)OCO3)N1c1ccccc1 (stereo not given)	7
O=C(c1ccc(Cl)cc1)[C@@H]1[C@@H]2C(=O)N(c3cccc4ccccc34)C(=O)[C@@H]2C2c3ccccc3C=NN21 (stereo not given in full)	8
Cc1nn(CC(=O)NC(C)C)c(C)c1[N+](=O)[O-]	10
O=C(CN(c1ccccn1)S(=O)(=O)c1ccc(F)cc1)Nc1ccc(F)cc1F	24
COc1ccc(OC)c(C2=C/C(=C/c3ccccn3)C(=O)O2)c1	11
CC(=O)c1ccc(O)c(CC=C(C)C)c1	17
Cc1nc2cc(C(=O)OCC(=O)Nc3cccc(Cl)c3)ccc2n1-c1ccccc1	25
Cc1ccc(C(=O)NN2C(=O)C3C4C=CC([C@@H]3C2=O)C42CC2)cc1 (stereo not given in full)	16
COc1ccc(-c2cc3nc4c(c(N5CCC6(CC5)OCCO6)n3n2)CCC4)cc1	28
COc1ccc2c(c1)c(=O)cc(-c1ccccc1)n2C	-4

Source: PubChem BioAssay
